Menin-MLL FL inh = qHTS Assay for Inhibitors Targeting the Menin-MLL Interaction in MLL Related Leukemias: Competition With Fluorescein Labeled MLL-derived Peptide; 290,000 tested, under 10 active; Fluorescence polarization, fluorescein-MLL peptide displacement from menin; FP activity change, % at 61.4 µM; inconclusive = falling polarisation curve, or a change in total fluorescence; inactive = total fluorescence flat and polarisation flat or rising; no compound was filed as active; the % refers to the polarisation; negative = inhibition;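 note: % of control where 0% means no effect; inhibitors lower the polarisation; unlabelled MLL peptide was the positive control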
TRPML1 blocker = qHTS for Inhibitors of the Human Mucolipin Transient Receptor Potential 1 (TRPML1) | actives 0.02% (n = 390,000) | TRPML1-inducible cells, Ca2+ dye fluorescence, FDSS; active compounds read low; inhibition of EC80 agonist-evoked calcium signal | activity change, negative = inhibition, % (concentration not given with the values); in the data active means activity change below about -50%; inconclusive means about -30% to -50%; inactive means above about -30%;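 note: stimulus is agonist 54-4 at its EC80 concentration; % is set by controls: 0 for no effect and ±100 for the full control effect; the text of the record puts the active cut at -80%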
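Calcium fluorescence in TRPML1-DL cells induced overnight with Tet: a 110 s read after compound pin addition, then a 110 s antagonist read after challenge with 54-4 at 4 uM final (EC80).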
Sfp PPTase inh = qHTS Assay for Inhibitors of Bacillus subtilis Sfp phosphopantetheinyl transferase (PPTase); AID 1490, 2009; Potency, µM, inactives show max response, negative = inhibition, actives largely listed as inhibitors; 4'-phosphopantetheinyl transferase ffp (Bacillus subtilis), Q9F4F7; actives 3.5% (n = 310,000); Biochemical Sfp PPTase activity, qHTS; active = well fitted inhibition curve with a large enough effect; inconclusive = small, poorly fitted or top-dose-only effect, or another doubt; inactive = no such curve, though single readings can be large or run the other way;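 note: the enzyme is Sfp with the accession as filed and its product quenches rhodamine fluorescence; potency is the fitted concentration of half-maximal effect; 0% = enzyme reaction without inhibitor and -100% = no enzyme wells; top concentration of the series not given in the record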
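Buffer: 50 mM Hepes-Na pH 7.6, 10 mM MgCl2, 0.01% Nonidet P-40, 0.01% BSA. Enzyme 15 nM, pre-exposed to compound 15 min; substrates then added and fluorescence change tracked over 30 min.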
PINK1 expr mod = A Quantitative High throughput Screen to Identify Chemical Modulators of PINK1 Expression; actives 0.2% (n = 410,000); PINK1 immunofluorescence, high-content cytometry, 24 h; Potency, µM (titrated, usually from 76.6 µM), without a hit: at the highest dose activation (PINK1 increase), hits mostly activators; active = well fitted activation curve with a large enough effect; inconclusive = small, poorly fitted or top-dose-only effect; inactive = flat fitted curve, though single readings scatter; cell line not stated here;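 note: potency is the fitted concentration of half-maximal effect; % of control where 0% means no effect; nearly all actives have a fitted effect of over 65% in size; a mitochondrial uncoupler was the plate control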
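A stable cell line was treated with compounds at 5 concentrations for 24 hours, with CCCP as control. PINK1 levels and mitochondrial localization were measured by immunofluorescence with mitochondrial, cell and nuclear markers after fixation, read by laser-scanning cytometry.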
TRPV1 PAM = HTS Assay for Compounds that Act as Potentiators of the Vanilloid Receptor 1 | Transient receptor potential cation channel subfamily V member 1 (Homo sapiens), Q8NER1 | TRPV1-expressing cells, Fluo-8 calcium influx, capsaicin EC20 potentiation; host cell line not named in the record; control for the full effect not named in the record | potentiation, % at 8.33 µM | actives 0.02% (n = 320,000) | AID 540277, 2011; active means potentiation above 80%; inconclusive means 30% to 80%; inactive means below 30%; note: 0% is about no effect
Target sequence (Q8NER1 whole entry, looked up): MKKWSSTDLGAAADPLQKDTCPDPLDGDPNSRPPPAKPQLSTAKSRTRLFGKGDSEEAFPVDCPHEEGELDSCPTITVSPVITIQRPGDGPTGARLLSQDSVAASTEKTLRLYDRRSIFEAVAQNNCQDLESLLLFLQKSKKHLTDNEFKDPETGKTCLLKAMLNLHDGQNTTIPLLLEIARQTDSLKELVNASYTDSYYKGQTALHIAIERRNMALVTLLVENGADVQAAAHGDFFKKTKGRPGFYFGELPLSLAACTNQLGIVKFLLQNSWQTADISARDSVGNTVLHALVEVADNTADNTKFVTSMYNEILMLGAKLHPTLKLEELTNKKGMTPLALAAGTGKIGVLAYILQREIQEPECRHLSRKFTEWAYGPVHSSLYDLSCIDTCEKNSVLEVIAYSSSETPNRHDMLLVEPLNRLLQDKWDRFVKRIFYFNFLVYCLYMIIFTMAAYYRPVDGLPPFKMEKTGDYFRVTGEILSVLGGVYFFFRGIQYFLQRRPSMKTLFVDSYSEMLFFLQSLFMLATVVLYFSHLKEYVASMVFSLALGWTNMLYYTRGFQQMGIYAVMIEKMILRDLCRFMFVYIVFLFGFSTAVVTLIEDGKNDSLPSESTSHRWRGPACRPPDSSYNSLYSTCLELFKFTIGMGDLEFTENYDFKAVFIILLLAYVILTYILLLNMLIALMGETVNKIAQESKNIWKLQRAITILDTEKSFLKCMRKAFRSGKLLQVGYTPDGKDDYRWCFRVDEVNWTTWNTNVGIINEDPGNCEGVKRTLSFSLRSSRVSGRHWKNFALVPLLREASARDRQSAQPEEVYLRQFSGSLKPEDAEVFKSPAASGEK
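TRPV1-expressing cells were cultured overnight at 35.5C and loaded with Fluo-8 calcium dye for 40 to 90 min at room temperature. After a 10 s baseline, compound was added and calcium influx was read kinetically for 3 min (ex 480/em 520 nm).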
TRPML1 agonist = qHTS for Agonists of the Human Mucolipin Transient Receptor Potential 1 (TRPML1) | Mucolipin-1 (Homo sapiens), Q9GZU1 | AID 624414, 2012 | actives 0.12% (n = 410,000) | activation, % (no concentration beside the values) | TRPML1-expressing cells, Ca2+ dye fluorescence, FDSS; host cell line not named in the record; reference of the full effect not given here; in the data active = activation above about 50%; inconclusive = about 30% to 50%; inactive = below about 30%; note: 0% is about no effect; the text of the record puts the active cut at 80%
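Kinetic FDSS Ca2+ read in Tet-induced TRPML1-DL cells (ABD Ca8 dye plus quencher, 45-90 min RT loading): baseline, then compound, then 110 s agonist window; EC80 agonist 54-4 at 4uM final added afterwards for a 110 s antagonist window.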
ClpP mod = qHTS Assay for Activators of ClpP; ATP-dependent Clp protease proteolytic subunit (Bacillus subtilis (strain 168)), P80244; Potency, µM (doses to about 57.5 µM), inactives show top-dose activity change, negative = active; purified B. subtilis ClpP, FRET peptide cleavage, 20 min; actives 1.9% (n = 340,000); AID 651965, 2013; active = well fitted falling curve with a large enough effect; inconclusive = small, poorly fitted or top-dose-only effect; inactive = no such curve, though single readings can be large or run the other way; note: potency is the fitted concentration of half-maximal effect; the source files actives as falling curves though it sought activators and does not explain the sign; nearly all actives have a fitted effect of over 65% in size; many hits overshoot -100%
Target sequence (P80244 whole entry, looked up): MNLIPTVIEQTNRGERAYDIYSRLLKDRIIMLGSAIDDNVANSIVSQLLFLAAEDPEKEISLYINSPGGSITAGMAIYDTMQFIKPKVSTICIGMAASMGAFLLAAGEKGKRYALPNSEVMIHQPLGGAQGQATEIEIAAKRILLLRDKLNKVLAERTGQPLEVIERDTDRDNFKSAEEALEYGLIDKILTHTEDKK
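Purified B. subtilis ClpP, 10 microg/mL final in Tris/HCl pH8 with KCl, BSA, glycerol and Tween-20, cleaved an Abz/nitrotyrosine-quenched decapeptide. Fluorescence (ex 320, em 430) was read at 0 and 20 min at room temperature. Delta was normalized to 5.8 microM ADEP and DMSO/no-enzyme controls.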
Numbers without * were called inactive; u = inconclusive; x = not tested or not shown; & = joins results of further samples; [ ] = another dose, or the depositor's remark.

SMILES	Menin-MLL FL inh	TRPML1 blocker	Sfp PPTase inh	PINK1 expr mod	TRPV1 PAM	TRPML1 agonist	ClpP mod
CCc1cccc(-n2nnc(S(=O)(=O)c3ccc(OC)cc3)c2C)c1	x	10	x	1.6%	x	1.1	0.1%
CCOc1ccc(/C=N/NC(=O)Nc2ccccc2)cc1	4.7	-8	15%	8.1%	4	0.5	0.4%
CC1CC(C)(C)NC(=S)N1CCCC(=O)Nc1ccc(Br)cc1 (configuration not stated)	-0.2	-14	23%	-0.8%	-7	0.0	-0.5%
O=c1c2c3c(sc2n(CCN2CCOCC2)c(=O)n1Cc1ccco1)CCCCC3	9.1	27	45µM*	-1.0%	u	1.7	-3.9%
COc1cc(NC(=O)CN2CCN(c3ccccc3F)CC2)cc(OC)c1	-2.8	-14	1%	1.2%	0	0.0	-0.9%
CCOc1ccc2c(c1)c(=O)c(C(=O)c1ccc(CC)cc1)cn2CC(=O)Nc1cccc(Cl)c1	x	30	x	0.1%	x	-0.1	-4.2%
O=C(NCc1ccccc1)C1CCCN(c2ncnc3c2nc2n3CCCCC2)C1 (configuration not stated)	2.9	-7	10%	3.0%	-29	0.0	x
Cc1ccc(OC(=O)c2cccc(S(=O)(=O)N3CCN(C)CC3)c2)c(Br)c1	x	25	-9%	1.0%	-5	-0.4	-2.0%
COc1ccc(C(=O)NCC(=O)OCC(=O)N2CCN(S(=O)(=O)c3ccccc3)CC2)cc1	6.8	4	8%	0.3%	-3	3.9	-1.6%
Cc1nc2c3cc(Cl)ccc3n(CCN3CCCCC3)c2s1	2.5	5	0%	4µM*	-25	0.3	0.5%
COc1ccc(CN(C(=O)c2ccccc2Br)C2CCS(=O)(=O)C2)cc1 (configuration not stated)	3.9	16	9%	0.6%	15	-0.6	2.3%
O=C(N=c1ccn(-c2nc3ccccc3nc2NS(=O)(=O)c2ccc(Cl)cc2)cc1)c1ccccc1Cl	u	x	28%	x	0	x	x
Cc1cccc(NC(=S)NCc2ccco2)c1C	-1.0	2	6%	1.8%	-8	-0.5	-1.1%
O=[N+]([O-])c1cc(S(=O)(=O)Nc2cccc(Cl)c2)ccc1N=Nc1c(O)[nH]c2ccccc12	-1.9	0	19%	-1.5%	18	-1.2	x
CCOC(=O)c1ccc(NC(=O)COC)cc1	8.1	9	10%	3.9%	-13	-1.1	-1.6%
O=C(CN1CCN(Cc2ccccc2)CC1)Nc1ccccc1-c1ccccc1	-1.0	49	u	1.3%	-5	1.4	x
CC(=O)Nc1ccc(S(=O)(=O)NCCC(=O)OCC(=O)c2cc(C)ccc2C)cc1	x	-1	x	2.8%	-3	-0.7	-0.8%
COc1cccc(/C=N/NC(=O)c2cc3cc([N+](=O)[O-])ccc3s2)c1O	22	7	u	2.0%	-8	1.2	-0.9%
CCNC(=S)N1CCc2cc(OC)c(OC)cc2C1COc1ccc(F)cc1 (configuration not stated)	-1.2	17	14%	4.6%	-17	0.8	x
COc1cc(S(=O)(=O)NCCOC23CC4CC(CC(C4)C2)C3)c(OC)cc1Cl	6.9	-4	-5%	7.2%	1	1.8	-0.9%
O=C(Oc1ccc(Cl)cc1)c1ccc2nccnc2c1	3.3	-1	10%	2.8%	0	-1.0	-0.8%
CCCCn1c(N)c(N(CCOC)C(=O)c2oc3c(Cl)cccc3c2C)c(=O)[nH]c1=O	x	-18	x	2.3%	x	-0.6	0.7%
CSc1nc2cc(Cl)ccc2s1	3.9	-4	7%	-1.3%	-9	0.2	2.5%
O=C(Nc1ccc2c(c1)OCO2)c1ccc2nc[nH]c2c1	1.3	1	-1%	3.7%	4	-0.5	0.7%
CCCCn1c(N)c(N(CC(C)C)C(=O)C2=COCCO2)c(=O)[nH]c1=O	x	-2	x	2.7%	-3	-0.4	-7.8%
COc1ccc(CNCCCSc2nnnn2C)c(OC)c1	x	-8	x	-0.1%	x	-0.7	-1.7%
CC(=O)C1=C(O)C(=O)N(c2ccc(Br)cn2)C1c1ccc(F)cc1 (configuration not stated)	3.9	-8	u	0.9%	21	2.2	x
CC(=O)NC(C)(CC(=O)c1ccccc1)c1ccccc1 (configuration not stated)	x	13	x	-0.3%	x	0.8	-0.3%
Cc1ccc(S(=O)(=O)N2CCCCC2)cc1NC(=O)COC(=O)CN1C(=O)NC2(CC(C)CC(C)(C)C2)C1=O (configuration not stated)	x	19	x	-0.4%	x	1.2	1.0%
CC(/C=N/n1c(-c2ccc(Cl)cc2)n[nH]c1=S)=C\c1ccco1	18	24	-29%	4.0%	4	2.4	1.3%
COc1cc(C)c(Cl)c(C)c1S(=O)(=O)NC1CC(C)(C)NC(C)(C)C1	-2.3	-16	2%	-0.7%	-6	0.2	-0.5%
CC(C)NC(=O)N1CC2(CCN(C(=O)c3cc(C(F)(F)F)cc(C(F)(F)F)c3)CC2)C1	1.5	x	10%	0.9%	x	x	x
O=C(O)c1ccc(Cl)c(S(=O)(=O)NCC2CCCO2)c1 (configuration not stated)	3.4	3	8%	1.7%	3	-0.4	2.7%
CC(=O)N1CCCC(C)(C(=O)Nc2cccc(OC(C)C)c2)C1 (configuration not stated)	x	x	x	1.4%	x	0.1	3.0%
COc1ccc(S(=O)(=O)N(CC(=O)NCC2CCCO2)c2ccc(Cl)cc2)cc1 (configuration not stated)	-0.4	10	17%	0.2%	-23	-0.3	x
COc1ccc(C(=O)Nc2ccc3[nH]ncc3c2)cc1	-0.3	1	28%	0.4%	-6	-0.7	-5.4%
COCCNC(=O)c1[nH]c(C(F)(F)F)nc1-c1ccccc1	x	1	x	2.4%	x	-0.2	-0.4%
Cc1cccc(NS(=O)(=O)c2ccc(C)c(C(=O)NC3CCN(Cc4ccccc4)CC3)c2)c1	x	-6	x	2.1%	x	-0.4	0.5%
C=CCNC(=S)Nc1nc2c(cc1C(=O)OCC)CCCC2	1.5	0	5%	-2.2%	-16	0.3	x
O=C(NCCN1CCN(c2ccccc2)CC1)Nc1ccccc1Cl	-0.4	7	9%	0.8%	-4	-0.3	1.9%
CC(=O)N1CCN(c2ccc(NC(=S)NC(=O)c3ccccc3)cc2)CC1	7.4	-5	4%	7.0%	u	0.2	-1.9%
Cc1ccc(-n2nc(C)c3c(C(F)(F)F)cc(-c4cccnc4)nc32)cc1Cl	x	-7	x	-0.3%	x	-0.6	-5.1%
O=C(c1ccccc1F)N1CCC(N2CCCCCC2)CC1	0.6	5	10%	-3.3%	-34	-0.5	0.0%
Cc1nc2ccccc2cc1C(=O)N/N=C/c1cccc([N+](=O)[O-])c1	1.4	5	24%	-0.7%	-10	0.0	1.1%
O=C(Nc1nnc(-c2ccc(Cl)cc2)o1)c1ccc(N2C(=O)CCC2=O)cc1	1.5	5	27%	0.6%	-1	-0.5	-1.3%
CN(CC(=O)Nc1ccc(F)cc1Cl)Cc1cccs1	-4.0	19	13%	10.0%	1	1.7	x
COCC(=O)N1CCC2(CCCN(C(c3ccccc3)c3ccccc3)C2)CC1	-3.5	x	-22%	1.0%	x	x	x
COc1ccc(CCNCC(C)c2ccccc2)cc1 (configuration not stated)	-1.7	20	-7%	0.0%	6	-1.0	0.2%
Cc1nn(CCCC(=O)Nc2ccccc2C(F)(F)F)c(=O)c2c1sc1ccccc12	x	6	x	1.3%	x	-0.2	-6.6%
NS(=O)(=O)c1ccc(NC(=O)c2cc(-c3cccs3)nc3ccccc23)cc1	5.3	19&5	u	14%&18%	-18	0.2&0.3	u

Next results follow.
SMILES	Menin-MLL FL inh	TRPML1 blocker	Sfp PPTase inh	PINK1 expr mod	TRPV1 PAM	TRPML1 agonist	ClpP mod
Cc1ccc(-n2c(-c3ccc(Cl)cc3Cl)n[nH]c2=S)cc1	-0.5	-11	-5%	0.7%	0	0.4	-0.4%
N#CC1(NC(=O)COC(=O)c2ncc(Cl)c(Cl)c2Cl)CCCCC1	x	0	x	1.3%	-11	-0.4	-3.0%
O=C(O)c1cc(S(=O)(=O)Nc2ccc(OCc3ccccc3)cc2)ccc1Br	-1.5	-24	2%	2.7%	-3	0.6	x
O=C(NCCc1ccccn1)c1cccc(S(=O)(=O)N2CCCCCC2)c1	6.1	-14	8%	-0.1%	3	0.9	-1.6%
Cc1cccc(C)c1NC(=O)NC1(C(=O)N2CCCCC2)CCCCC1	x	-3	10%	-0.2%	3	-0.6	x
O=S(=O)(NCC(c1ccco1)N1CCOCC1)c1ccc(F)cc1 (configuration not stated)	x	-4	x	1.7%	x	-0.8	3.5%
C=CCOC(=O)C1=C(C)NC(=O)NC1c1ccc(O)cc1 (configuration not stated)	-1.4	x	13%	0.1%	-26	x	0.7%
COc1ccc(N=C2S/C(=C\c3ccc(C)o3)C(=O)N2CC(C)C)cc1	-1.1	9	28µM*	5.7%	-10	-1.0	0.2%
O=C(CSc1nc2[nH]ncc2c(=O)[nH]1)Nc1nccs1	-8.2	x	-9%	x	-2	x	x
Cc1oc(C(C)(C)C)cc1C(=O)Nc1cccc(C(=O)O)c1	2.0	12	32%[activator]	10%[38.3 µM]	-19	1.4	-1.3%
Cn1c(N2CCOCC2)c(/C=N/O)c2ccccc21	-0.4	-2	7%	0.9%	1	2.3	x
CCCCC(=O)Nc1ccccc1N1CCN(c2ccc(F)cc2)CC1	-1.2	13	1%	2.3%	-6	0.7	0.5%
O=S1(=O)c2ccc(Br)cc2N2CCC[C@H]2CN1Cc1ccccc1	x	68	x	4.3%	x	0.4	-1.1%
C/C(=N\N(c1ccccc1)c1ccccc1)c1ccco1	-6.0	u	0%	20%	-25	2.3	1.0%
O=S(=O)(c1cccc(NC(=S)N2CCN(c3cccc(Cl)c3)CC2)c1)C(F)F	0.1	13	17%	25%	15	2.7	x
